UCH37 DUB inh: inhibitors of human UCH37 deubiquitinase, primary screen, biochemical, Ub-AMC cleavage, fluorescence. purified proteasome/UCH37. actives 0.33% (n = 330,000). inhibition, % (concentration not given with the values). AID 588478, 2011. Ubiquitin carboxyl-terminal hydrolase isozyme L5 (Homo sapiens), Q9Y5K5;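 active = mean of two replicates above 20%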;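 note: 0% = compound-free wells with enzyme and 100% = wells lacking proteasome; stock transfer was 100 nL into about 20 µL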
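Reagent: Ub-AMC substrate; assay system: Proteasome-associated human UCH37 deubiquitinase; controls: no-proteasome and no-compound wells; read-out: % inhibition of Ub-AMC cleavage fluorescence; timing: 30 min preincubation with enzyme, 25 min cleavage at room temperature; signal: AMC fluorescence from Ub-AMC cleavage, excitation 355 nm, emission 460 nm; buffer or medium: Tris-HCl pH 7.4 plus ovalbumin, ATP-MgCl2, DTT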
Ecoli growth: E. coli growth inhibition, primary screen, OD600. AID 1053175, 2014. Escherichia coli growth, 23 h; active compounds read low. actives 0.21% (n = 330,000). OD600 absorbance (no concentration beside the values);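 active = OD600 absorbance below the run mean of sample wells minus 3.6 SD, in any replicate, cut at about 0.56 in these data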;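 note: stock transfer was 300 nL into about 60 µL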
LANA-H2A inh: blockers of LANA interaction with H2A/H2B – biochemical, FP readout, HTS, primary screen; cell-free LANA-H2A/H2B peptide, fluorescence polarization; inhibition, % (no concentration beside the values); actives 0.6% (n = 320,000); AID 2629, 2010; in the data active = inhibition mostly above about 10%, no sharp cut-off; inactive = mostly below about 6.7%;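 note: stock transfer was 7.5 nL into about 10 µL; 0% = median of vehicle wells and 100% = median of positive control wells; one replicate is shown; the record names a cut of 25% in any replicate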
Target sequence (Q9QR71 whole entry, looked up): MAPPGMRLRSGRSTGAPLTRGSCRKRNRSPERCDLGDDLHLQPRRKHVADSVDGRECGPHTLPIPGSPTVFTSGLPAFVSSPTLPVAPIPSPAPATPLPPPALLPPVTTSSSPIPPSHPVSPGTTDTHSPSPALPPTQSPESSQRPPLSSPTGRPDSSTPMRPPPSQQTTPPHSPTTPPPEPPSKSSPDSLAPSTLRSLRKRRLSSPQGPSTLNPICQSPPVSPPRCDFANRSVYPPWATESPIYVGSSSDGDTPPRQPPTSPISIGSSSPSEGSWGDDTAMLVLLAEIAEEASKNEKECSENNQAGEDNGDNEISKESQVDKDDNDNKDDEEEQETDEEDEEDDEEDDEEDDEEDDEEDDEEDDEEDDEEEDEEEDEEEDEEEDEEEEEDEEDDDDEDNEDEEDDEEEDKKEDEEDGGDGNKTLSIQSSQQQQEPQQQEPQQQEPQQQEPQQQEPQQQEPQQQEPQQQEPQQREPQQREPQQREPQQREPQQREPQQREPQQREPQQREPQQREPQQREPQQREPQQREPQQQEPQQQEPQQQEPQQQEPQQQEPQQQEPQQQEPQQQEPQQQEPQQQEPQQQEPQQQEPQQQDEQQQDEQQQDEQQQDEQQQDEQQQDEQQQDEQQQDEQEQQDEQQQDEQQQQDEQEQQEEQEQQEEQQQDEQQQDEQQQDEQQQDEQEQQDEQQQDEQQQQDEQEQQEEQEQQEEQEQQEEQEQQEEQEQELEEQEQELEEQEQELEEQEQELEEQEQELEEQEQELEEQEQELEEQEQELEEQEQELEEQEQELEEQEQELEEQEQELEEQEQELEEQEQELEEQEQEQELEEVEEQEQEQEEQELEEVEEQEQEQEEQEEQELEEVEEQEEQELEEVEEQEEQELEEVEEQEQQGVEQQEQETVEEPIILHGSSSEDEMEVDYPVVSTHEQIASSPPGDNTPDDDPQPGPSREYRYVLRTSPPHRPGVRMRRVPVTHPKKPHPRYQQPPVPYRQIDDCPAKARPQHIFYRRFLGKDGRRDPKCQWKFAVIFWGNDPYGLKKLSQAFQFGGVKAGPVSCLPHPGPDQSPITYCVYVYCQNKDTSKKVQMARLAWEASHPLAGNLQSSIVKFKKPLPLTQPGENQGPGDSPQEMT
Vif TR-FRET: inhibitors of Vif binding to APOBEC3G peptide, primary screen, biochemical, TR-FRET, GST-Vif 1-94, biotin-A3G peptide, dose response retest (AID 1117319). actives 0.57% (n = 260,000). TR-FRET GST-Vif / biotin-A3G peptide binding; higher % means a stronger effect; test concentration not given here; strong numbers were not always called active. inhibition, %, or IC50 in µM where a hit was titrated. Virion infectivity factor (Human immunodeficiency virus type 1 group M subtype B (isolate …;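 active = above the screen mean plus three standard deviations and confirmed in dose response; inconclusive = results disagree or hit not tested in dose response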;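 note: Vif residues 1-94 fused to GST binding biotinylated APOBEC3G peptide 110-148; 0% = full assay without inhibitor and 100% = GST in place of GST-Vif; retest series ran down from 100 µM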
HNF4A DNA FP: change in binding of human HNF4A to DNA, primary screen, biochemical, fluorescence polarization, FITC-DNA; 1 h; actives 0.3% (n = 360,000); AID 1224865, 2016; Hepatocyte nuclear factor 4-alpha (Homo sapiens), P41235; activity change, % at 10 µM; in the data active = activity change above about 30%, passing the limit was not always enough;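 note: controls were the assay level and a saturating level of protein; the project sought stronger binding though the title names inhibitors; some compounds called inactive have numbers as strong as hits; positive values seem to mean higher polarization but the record does not say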
A1 inh: caspase 3/7 activation in MEF A1-2A-BIM cells, primary screen, A1 inhibitor project, cell-based, luminescence, HTS. Caspase-Glo 3/7 luminescence, 3 h; percent of clofoctol response, vehicle zero. caspase activation, % (concentration not given with the values). actives 0.066% (n = 330,000);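 active = over half of replicate activation scores above 10%, or exactly half above 10 with the replicate mean above 10; inconclusive = replicate mean below 10 yet half the replicates above 10; inactive = over half of replicates below 10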;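 note: wells of about 30 µL received 50 nL stock; many hits fall short of the cut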
Beta2AR agonist: beta2AR agonists driving receptor internalization, primary screen, cell-based, FAP fluorogen, flow cytometry; Beta-2 adrenergic receptor (Homo sapiens), P07550; Am2.2-beta2AR cells; reference of the scale not given here; response, % (concentration not given with the values); actives 0.43% (n = 340,000);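 active = response above a set limit, near 3 SD of response in nonfluorescent compounds, cut at about 42% in these data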;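 note: stock transfer was 100 nL into about 11 µL; a reference agonist was the positive control; negative values mostly stem from fluorescent compounds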
* marks the source's active call; other numbers are inactive results; u = inconclusive; x = no result given; & = joins results of further samples. Compounds were not picked by outcome; overall some 2.1% were active at least once.

SMILES | UCH37 DUB inh | Ecoli growth | LANA-H2A inh | Vif TR-FRET | HNF4A DNA FP | A1 inh | Beta2AR agonist
COc1ccc(/C=C(\NC(=O)c2cccs2)C(=O)N2CCOCC2)cc1OC | 2.2 | x | x | x | 1.7 | 1.4 | -3
COc1ccc(C(=O)n2nc(-c3ccc(Cl)cc3)nc2N)cc1OC | x | x | 0.4 | 71µM* | 2.9 | 0.4 | 2
CN(C)c1cccc(C(=O)OCC(=O)Nc2ccccc2Cl)c1 | -17 | 0.7 | 0.4 | 4% | -0.1 | -0.3 | 4
CCOC(=O)C(C)Sc1nc(-c2cccs2)ccc1C#N (stereo not drawn) | -73 | 0.66 | -2.2 | 13% | 3.1 | 0.7 | 4
Cc1cc(C)c2sc(NC(=O)c3ccc([N+](=O)[O-])o3)nc2c1 | 6.8 | 0.62 | 0.4 | x | 2.0 | -0.5 | 20
O=[N+]([O-])c1ccccc1S(=O)(=O)Oc1ccc(C(=S)N2CCOCC2)cc1 | 5.2 | 0.71 | -2.1 | 6% | 4.9 | 0.0 | 4
CC1=C(C(=O)Nc2ccccc2)C(c2ccccn2)n2ncnc2N1 (stereo not drawn) | 3.2 | 0.72 | -4.2 | 9% | 0.0 | 0.4 | 3
COc1cc(OC)cc(C(=O)N2CCC(N3CCN(c4ccccc4)CC3)CC2)c1 | 0.4 | 0.74 | 2.4 | -1% | 2.1 | 0.5 | 5
O=c1[nH]cnc2scc(-c3cccs3)c12 | 1.8 | 0.66 | 5.6 | 17% | -1.3 | 0.3 | -7
CCOC(=O)NCCc1ccc(OC)cc1 | -0.5 | 0.75 | -2.6 | 2% | 1.9 | 0.1 | 3
CCN1CCN(C(=O)c2ccccc2N(Cc2ccccc2)S(=O)(=O)c2ccc(C)cc2)CC1 | 3.6 | 0.7 | -4.5 | -1% | 1.5 | 0.4 | 4
COCCCNC(=O)CSC1=Nc2ccccc2C2=NC(c3ccccc3)C(=O)N12 (stereo not drawn) | -116 | 0.69 | 10 | 0% | 6.3 | 0.2 | 5
CCC(=O)Nc1sccc1C(=O)OC | 1.5 | 0.6 | 1.5 | 4% | 6.0 | -0.3 | 4
CS(=O)(=O)N1Cc2ccccc2CC1C(=O)Nc1ccccc1C(N)=O (stereo not drawn) | 5.7 | 0.68 | 1.4 | 0% | 3.5 | -0.1 | 3
CC1=NN(C(C#N)c2ccccc2)C(c2ccccc2)C1 (stereo not drawn) | 0.5 | 0.67 | -2.8 | 23% | 4.1 | 0.8 | 7
Cc1cc(C)c(C(=O)OCCNC(=O)c2cccnc2)cc1C | 0.4 | 0.67 | -0.6 | 2% | -2.0 | -0.6 | -17
COc1ccc(CC(=O)N/N=C(\C)c2cccs2)cc1 | x | x | -3.9 | x | 3.6 | 0.0 | -12
O=C(OCC(=O)N1CCN(C(=O)c2ccco2)CC1)c1ccc(Cl)cc1 | 1.9 | 0.63 | 11 | 23% | -1.1 | 0.1 | -1
Nc1c(C(=O)NCCN2CCOCC2)c2nc3ccccc3nc2n1-c1ccc2c(c1)OCO2 | -14 | 0.7 | -1.6 | 23% | -2.7 | 0.9 | -4
CCC(C)(C)n1nnnc1C(c1ccc2ncccc2c1)N1CCN(c2nc3ccccc3s2)CC1 (stereo not drawn) | 3.1 | 0.73 | -2.3 | 1%&-9% | 3.3 | -0.7 | 4
O=C(COC(=O)c1ccccc1F)Nc1ccc2c(c1)OCCO2 | 0.7 | 0.65 | x | -1% | 7.9 | x | -2
CC(C(=O)NCc1ccc(Cl)cc1)n1cccc1C(=O)c1ccccc1 (stereo not drawn) | 3.2 | 0.68 | 19* | x | -6.8 | -0.1 | -7
CC(C)C(c1nnnn1Cc1ccccc1)N1CCN(Cc2ccco2)CC1 (stereo not drawn) | 2.4 | 0.69 | 11 | 0% | 3.8 | 1.2 | 11
CCC1CCC2(CC1)NC(=O)N(CC(=O)NCc1ccccc1Cl)C2=O (stereo not drawn) | 0.7 | 0.68 | 0.9 | 4% | 2.8 | 0.1 | -6
NS(=O)(=O)c1ccc(CCNC(=O)c2ccc(-c3ccccc3)cc2)cc1 | 1.7 | 0.68 | 2.7 | -4% | 2.3 | 1.4 | 4
(cont.)
SMILES | UCH37 DUB inh | Ecoli growth | LANA-H2A inh | Vif TR-FRET | HNF4A DNA FP | A1 inh | Beta2AR agonist
CCC(C(=O)O)n1c(C(F)(F)F)nc2ccccc21 (stereo not drawn) | 1.1 | 0.71 | 0.9 | 2% | 7.2 | 0.8 | -8
CC1Sc2ccc(C(=O)OCc3ccccc3Cl)cc2NC1=O (stereo not drawn) | 1.3 | 0.72 | -3.6 | -2% | 1.8 | -0.9 | 3
Cc1ccccc1OCC(O)CN(CCO)Cc1ccccc1 (stereo not drawn) | 4.5 | 0.69 | -1.1 | u | 2.5 | -1.5 | -8
Cc1ccc2c(c1)C1CN(C)CCC1N2C(=O)COc1ccccc1F (stereo not drawn) | 4.3 | 0.7 | 0.8 | x | 4.7 | 1.0 | -4
NC(=O)c1ccc(-n2nnnc2SCC(=O)Nc2ccc(N3CCOCC3)c(Cl)c2)cc1 | 0.4 | 0.76 | -2.6 | 7% | 1.3 | -0.1 | 0
Cc1ccc(C)c(NC(=O)COC(=O)c2ccc3c(c2)OCCO3)c1 | 3.1 | 0.69 | -2.3 | x | 1.0 | 0.6 | 0
CN(C)C(=O)CSc1nnc(Cc2ccc([N+](=O)[O-])cc2)o1 | 1.7 | 0.7 | -0.5 | 6% | -2.1 | -0.2 | -8
CCCc1cc(=O)oc2c(C)c(OCC(=O)NC3CCN(Cc4ccccc4)CC3)ccc12 | x | x | 3.2 | x | 0.1 | -1.0 | -10
CCOCc1cn(CC(=O)c2ccc(Cl)cc2)c(C)nc1=N | 1.4 | 0.64 | 2.0 | 3% | 0.6 | 0.7 | -2
CCOC(=O)C(N)CSC1CC(=O)N(c2ccc(C(=O)OC)cc2)C1=O (stereo not drawn) | -2.3 | 0.71 | -3.1 | 4% | -1.2 | 1.6 | 14
Nn1c(-c2cccc(Br)c2)n[nH]c1=S | -0.3 | 0.75 | -0.8 | 6% | -0.1 | 0.5 | 3
CN(C)/C=N/c1c(C#N)cnn1-c1ccc(C(F)(F)F)cn1 | x | x | 4.1 | 3% | -2.4 | -0.3 | -6
CN(C)C(CNC(=O)c1cccc(S(=O)(=O)N2CCN(c3ccc(F)cc3)CC2)c1)c1ccccc1 (stereo not drawn) | 3.1 | 0.63 | x | 5% | -2.1 | x | 11
CCn1ccnc1CNC(=O)c1ccc2oc(CCCc3ccccc3)nc2c1 | 0.2 | 0.66 | -5.3 | x | 2.2 | 1.1 | 0
O=C(COc1ccc(S(=O)(=O)N2CCCCC2)cc1)N1CCOCC1 | 0.7 | 0.71 | -6.6 | x | -2.2 | 0.5 | 1
CCOC(=O)C(C)Oc1cccc2c(=O)n(CC(=O)NCc3ccco3)ccc12 (stereo not drawn) | -3.3 | 0.77 | -2.1 | 5% | -2.1 | 0.9 | 13
CC(=O)Nc1cccc(NC(=O)Nc2cccc(Cl)c2C)c1 | 3.6 | 0.74 | -6.8 | 30% | -1.7 | 0.6 | -3
COc1ccccc1N1CCN(c2ccc(-c3ccccc3)nn2)CC1 | 1.5 | 0.65 | -3.9 | 1%&19% | 1.2 | -7.1 | 23
Cc1ccc(OCc2cc(C(=O)N3CCC(Oc4cccnc4)CC3)no2)cc1C | 2.2 | 0.69 | -3.2 | x | -4.2 | -0.8 | 0
Cc1c(Cl)cccc1NC(=O)CSc1nnnn1C | -2.5 | 0.71 | -2.7 | x | 5.0 | 0.6 | 8
COc1ccc(F)cc1S(=O)(=O)NCCCn1ccnc1 | -2.4 | 0.71 | 3.4 | x | -1.7 | -0.2 | 0
O=[N+]([O-])c1cccc(-c2nc3ccc([N+](=O)[O-])cc3[nH]2)c1 | 3.8 | 0.63 | -1.1 | -4% | 0.0 | -4.8 | 3
CCN(CCn1cccn1)Cc1cn[nH]c1-c1ccc(-c2ccccc2)cc1 | 0.5 | 0.64 | 0.4 | x | 2.4 | -0.5 | 6
Cc1cc([N+](=O)[O-])ccc1N(C)C | 3.9 | 0.63 | 0.4 | 1% | 1.4 | 0.3 | 0
CCN(CC)S(=O)(=O)c1ccc2nnn(O)c2c1 | 0.1 | 0.69 | 0.5 | -1% | -0.7 | -0.1 | 2
Going on with the list.
SMILES | UCH37 DUB inh | Ecoli growth | LANA-H2A inh | Vif TR-FRET | HNF4A DNA FP | A1 inh | Beta2AR agonist
Cc1ccc(S(=O)(=O)NCCC(=O)NCC(=O)Nc2c(C)cccc2C)cc1C | 0.4 | 0.69 | 3.5 | -3% | -3.7 | 0.5 | -8
O=C(c1ccc(CS(=O)Cc2ccccc2Cl)o1)N1CCN(c2ccccn2)CC1 (stereo not drawn) | 2.6 | 0.7 | 0.2 | x | 1.6 | 1.7 | -6
CC(=O)Oc1cccc(N2C(=O)C3C4C=CC(C4)C3C2=O)c1 (stereo not drawn) | 5.3 | 0.71 | 2.6 | 7% | 10 | 0.5 | 1
S=C(NCc1ccc(Cl)cc1Cl)NC1CCCCC1 | 6.9 | 0.66 | 0.0 | -1% | 0.3 | 0.0 | -1
O=C(Nc1nc2ccc(Br)cc2s1)c1ccco1 | -5.9 | 0.61 | -5.2 | -19% | 0.8 | -4.4 | -1
COc1ccc(CC(=O)NCC2CCCN(Cc3ccccc3OC)C2)cc1 (stereo not drawn) | 0.2 | 0.61 | -4.9 | x | 2.1 | 2.3 | 13
CCC(C)(C)NC(=O)CN(C(=O)CNS(=O)(=O)c1ccc(C)cc1)c1ccc2c(c1)OCCO2 | 1.6 | 0.71 | -3.6 | -8% | 0.1 | -0.9 | 23
O=C(NC1CCC(=O)N(CCSc2ccccc2)CC1)OCc1ccccc1 (stereo not drawn) | 3.5 | 0.69 | 0.8 | x | -1.0 | -0.3 | -5
COc1ccc(CNC(=O)[C@@H]2CC=C[C@@H]3CCN(C4CC4)C(=O)[C@@H]32)cc1 | 1.5 | x | -2.5 | x | 1.0 | 1.0 | 6
COc1nc(-c2cccc([N+](=O)[O-])c2)nc2ccccc12 | 2.8 | 0.71 | -15 | -8% | 1.4 | 0.9 | -5
Cc1cccc2sc(N(CCCN(C)C)C(=O)c3cc4ccccc4oc3=O)nc12 | 4.0 | 0.62 | 4.2 | -1% | 4.3 | 0.3 | 18
CN(CC(=O)Nc1cccc(F)c1)C(=O)c1ccc2c(c1)NC(=O)CS2 | 4.4 | 0.72 | 5.9 | -8% | -2.8 | -0.1 | -9
CC1(C)CC(=O)C=C(c2ccc(OC(F)(F)F)cc2)C1 | 1.3 | 0.64 | -2.0 | x | -0.7 | 0.1 | -6
CCOC(=O)c1c(C)[nH]c(C)c1C(=O)CSc1nnc(-c2cc(OC)c(OC)c(OC)c2)o1 | 2.2 | 0.72 | 4.4 | -2% | 5.3 | -0.1 | -3

From PubChem BioAssay
